Source: PubChem BioAssay
MT1-MMP reporter = inhibitors of MT1-MMP promoter transcription, cell-based, luciferase reporter, luminescence (AID 618) | MT1-MMP promoter luciferase reporter cells, luminescence | calls from a first round at 10 µM; hits with a dose series show EC50 in µM | 87,000 tested, 0.62% active;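 active = over half of the reporter light lost at 10 µM or EC50 under 50 µM; inactive = the rest and hits that failed the dose series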;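 note: actives suppress MT1-MMP promoter-driven transcription so potencies describe inhibitors; HT1080 fibrosarcoma cells; overnight exposure; toxic or luciferase-blocking compounds were not removed from the actives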
WNV NS2B-NS3 inh = inhibitors of West Nile virus NS2B-NS3 protease; WNV NS2B-NS3 protease, fluorogenic substrate Ex360/Em465; hits give low values; 65,000 tested, 0.18% active; P06935; AID 577; z-score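 (tested at a level between 10 and 100 µM)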;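 active = z-score at -3 or under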;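 note: score is relative to mean and spread of the compound wells of a plate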
Target sequence (P06935 1371-1501 limits assumed): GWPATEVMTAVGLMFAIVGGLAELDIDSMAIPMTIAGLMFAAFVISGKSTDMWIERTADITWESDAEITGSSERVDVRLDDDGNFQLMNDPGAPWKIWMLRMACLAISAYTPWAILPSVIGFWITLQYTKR
Target sequence (P06935 1502-1679 limits assumed): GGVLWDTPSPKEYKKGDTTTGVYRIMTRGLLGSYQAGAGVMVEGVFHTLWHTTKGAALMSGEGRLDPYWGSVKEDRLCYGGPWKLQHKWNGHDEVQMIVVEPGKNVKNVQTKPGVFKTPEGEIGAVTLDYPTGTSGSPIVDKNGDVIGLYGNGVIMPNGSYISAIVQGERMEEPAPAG
Hsc70 ATP site = Hsc70 inhibitors, probe displacement, primary screen, biochemical, fluorescence polarization (AID 568). Hsc70 fluorescence polarization, probe displacement; higher % means a stronger effect; strong numbers were not always called active. one-dose displacement, % at 20 µM; IC50 in µM for titrated hits. 83,000 tested, under 10 active;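 active = displacement above 50% without optical interference and an IC50 on retest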;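 note: ATPase domain with a fluorescein-tagged ATP probe; 0% = vehicle and 100% = excess ADP; read after one hour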
The depositor's hits bear a star; i = inactive; / = not tested or not shown; + = active, no number.

SMILES	MT1-MMP reporter	WNV NS2B-NS3 inh	Hsc70 ATP site
O=C(C1CC1)N1CCc2cc(Br)cc(S(=O)(=O)NC3CCCCC3)c21	i	2.8	-0.9%
CCCCn1c(CCC(=O)O)ccc1-c1cccs1	i	0.41	0.9%
COc1ccc(NC(=O)CSc2ccc(C)cc2)cc1	i	/	-0.6%
CCc1ccccc1NC(=O)c1cc(C2CC2)on1	i	0.4	0.4%
COc1cc(-c2nc(-c3ccc(-c4ccccc4)nc3OC)no2)cc(OC)c1OC	i	0.27	-5.3%
c1ccc(-c2noc(-c3ccc4c(c3)OCO4)n2)nc1	+	0.33	-1.3%
CC(C)C(NC(=O)C1CCCCC1)C(=O)Nc1ccncc1 (stereo unspecified)	i	-1.4	-2.6%
CC(NC(=O)CSc1nc2ccccc2c(=O)n1CCCO)c1ccccc1 (stereo unspecified)	i	0.73	-0.9%
COc1ccc(CC(=O)N(Cc2cc3cc(OC)ccc3[nH]c2=O)C(C)C)cc1	i	-0.49	-4.9%
NNc1nnc(-c2ccccc2)c(-c2ccccc2)n1	i	/	6.8%
Cn1c2ccccc2c2cnn(CC(=O)O)c(=O)c21	i	0.7	3.1%
O=C(Nc1ccccc1)c1cnc[nH]1	i	-0.64	6.1%
NCCCCCc1nnc(SCC(=O)c2ccc(Cl)cc2)o1	i	-0.78	-2.0%
COc1cc(C(=O)Nc2ccc3c(c2)OCCO3)ccc1OC(C)C	i	-0.75	1.3%
O=C(NS(=O)(=O)c1ccccc1)c1ccccc1O	i	0.81	7.8%
CCOC(=O)N1CCC(NC(=O)c2cc(S(=O)(=O)N(CC)CC)ccc2F)CC1	i	/	5.5%
CCCCNC(=O)Nc1c(C(=O)OCC)[nH]c2ccccc12	i	-0.41	2.5%
CSc1ncccc1C(=O)OCC(=O)N(CC(C)C)C1CCS(=O)(=O)C1 (stereo unspecified)	i	-1.2	-1.3%
CCc1cc2c(=O)c(-c3nc4ccccc4n3C)c(C)oc2c(CN2CCOCC2)c1O	i	-0.84	-2.4%
CCCNC(=O)c1ccc2snnc2c1	i	/	6.6%
O=C(Nc1ccc2nc(-c3ccco3)c(-c3ccco3)nc2c1)NC1CC1	i	/	6.8%
O=C(CCCN1C(=O)C2C3C=CC(C3)C2C1=O)N1CCN(c2ccccc2)CC1 (stereo unspecified)	i	0.2	-0.3%
C=CCSC1=C(C#N)C(c2cccc(OC)c2)CC(=O)N1 (stereo unspecified)	i	-1.1	1.2%
O=C(Cc1ccc(F)cc1)NC1CCCC1	i	/	-3.1%
Cc1ccccc1N1CCN(CCCOc2ccc3c(C)cc(=O)oc3c2)CC1	i	/	-5.4%
SMILES	MT1-MMP reporter	WNV NS2B-NS3 inh	Hsc70 ATP site
CCn1cc(C(=O)NCc2ccc3c(c2)OCO3)c(=O)c2cc(F)c(N3CCN(C(=O)c4ccco4)CC3)cc21	i	/	-0.7%
COc1ccc(OC)c(Nc2cc(C)nc3nc(C)nn23)c1	i	-0.38	1.9%
CCCNC(=O)NS(=O)(=O)c1ccc(Cl)cc1	i	-0.34	4.9%
COc1cccc(-c2nnn(CC(=O)NC3CCCC3)n2)c1OC	i	-0.21	1.4%
CCCn1c(SCC(=O)Nc2ccc3c(c2)OCO3)nc2c1c(=O)n(C)c(=O)n2C	i	-0.8	2.9%
O=C(N/C(=C\c1cccs1)C(=O)N1CCCCCC1)c1ccccc1	i	/	1.7%
O=C(Cc1cn2ccsc2n1)Nc1nc2c(s1)CN(Cc1ccccc1)CC2	i	-0.06	1.5%
COc1cccc(C(=O)N2CCN(S(=O)(=O)Cc3ccccc3)CC2)c1OC	i	-0.4	-7.5%
CCCc1nnc(NC(=O)CNc2ccc(F)cc2)s1	i	0.62	5.3%
O=C(Nc1ccc(S(=O)(=O)N2CCOCC2)cc1)c1ccc(Br)o1	i	0.18	-1.6%
Cc1cc(NC(=O)CCCC(=O)N(CC(=O)NCCc2ccccc2)Cc2ccc(F)cc2)no1	i	-0.62	7.0%
CCCOc1ccccc1NC(=O)CC1Nc2ccccc2NC1=O (stereo unspecified)	i	-0.79	-26%
O=C(NCC(=O)N(Cc1cccs1)C(C(=O)NC1CCCC1)c1cccnc1)c1ccco1 (stereo unspecified)	i	/	-5.4%
CCC(=O)N1CCCc2cc(S(=O)(=O)N3CCCc4ccccc43)ccc21	i	0.08	5.5%
CCOC(=O)Cc1csc(NC(=O)C2C3C=CC(C3)C2C(=O)O)n1 (stereo unspecified)	i	-0.41	1.0%
O=C(NC1CCCCC1)c1cccc(Cn2cc(Cl)cn2)c1	i	/	-1.2%
CCOc1ccc(-c2nc(CSCC(=O)NCc3ccco3)c(C)o2)cc1	i	-1.1	3.0%
O=C(c1ccc(F)cc1)N1C2CCC1CC(O)(c1ccc(F)cc1)C2 (stereo unspecified)	i	/	-1.8%
CCOCCCNC(=O)CCCOc1ccccc1	i	-0.0061	0.8%
Cc1ccc(C2CC(C(F)(F)F)n3nc(C(=O)NCCN4CCOCC4)cc3N2)cc1 (stereo unspecified)	i	-0.3	-2.6%
COc1ccc2c(c1)C(C)=CC(C)(C)N2C(=O)Nc1ccccc1	i	/	-2.3%
O=C(Nc1cccc(F)c1)NC1(C(=O)N2CCN3CCCC3C2)CCCCC1 (stereo unspecified)	i	/	2.3%
NC(=O)COc1cccc2cccnc12	i	/	4.4%
COc1cccc(-n2ccnc2SCC(=O)N2CCc3ccccc32)c1	i	-0.89	7.9%
O=C(Oc1ccc(-c2nnco2)cc1)N1CCCCC1	i	0.4	-7.0%

Reprinted at random: four compounds from above
SMILES	MT1-MMP reporter	WNV NS2B-NS3 inh	Hsc70 ATP site
CCCNC(=O)NS(=O)(=O)c1ccc(Cl)cc1	i	-0.34	4.9%
COc1cccc(C(=O)N2CCN(S(=O)(=O)Cc3ccccc3)CC2)c1OC	i	-0.4	-7.5%
O=C(Cc1cn2ccsc2n1)Nc1nc2c(s1)CN(Cc1ccccc1)CC2	i	-0.06	1.5%
CCCn1c(SCC(=O)Nc2ccc3c(c2)OCO3)nc2c1c(=O)n(C)c(=O)n2C	i	-0.8	2.9%

Following part.
SMILES	MT1-MMP reporter	WNV NS2B-NS3 inh	Hsc70 ATP site
COc1ccc(C2/C(=C(/O)c3ccccc3)C(=O)C(=O)N2CO)cc1 (stereo unspecified)	i	-1.2	-6.2%
CCCn1cc(NC(=O)c2cc(-c3ccccc3)on2)cn1	i	/	-0.5%
CCC1CCCCN1C(=O)CSc1nnc(-c2c[nH]c3ccccc23)o1 (stereo unspecified)	i	0.83	-1.3%
O=S(=O)(c1cc(Cl)ccc1Cl)N1CCNCC1	i	/	5.5%
CCOc1cc(C)c(Cl)cc1S(=O)(=O)NCc1ccco1	i	0.49	-0.9%
CCOC(=O)C1=C(SCC(=O)Nc2ccccc2)NC(=O)C(C#N)C12CCCCC2 (stereo unspecified)	i	-0.28	2.0%
O=C(Nc1ccccc1N1CCCC1)c1ccc2c(c1)OCO2	i	0.04	-2.6%
O=C(OCC(=O)N1CCN(C(=O)c2ccco2)CC1)c1ccc(S(=O)(=O)N2CCCCC2)cc1	i	-0.56	9.7%
Cc1ccc(CSc2ncccc2C(=O)O)cc1	i	/	3.6%
O=C(CSCCc1ccccn1)Nc1cccnc1	i	-1.1	8.4%
CC1(C)Oc2ccc(C(=O)NC3CCCC3)cc2N(CC(=O)N2CCOCC2)C1=O	i	-0.93	0.2%
Cc1cc(NC(=O)Nc2cccc3ccccc23)no1	i	-0.7	-0.4%
Cc1cccc(CSc2nnc(-c3cccs3)n2Cc2ccco2)c1	i	/	-2.0%
O=C1CC2CS(=O)(=O)CC2N1c1ccc(Cl)cc1Cl (stereo unspecified)	i	-0.49	-1.5%
Cn1c(=O)c2ncn(CC(=O)Nc3ccc4oc(-c5cccc6ccccc56)nc4c3)c2n(C)c1=O	i	-0.22	1.0%
COC(=O)C1C(=O)c2c(n[nH]c2C)CC1(C)C (stereo unspecified)	i	-0.92	3.9%
CC1(C)CC(=O)C2=C(C1)OC1=C(C(=O)CC(C)(C)C1)C2c1ccc(O)cc1O	+	1.2	9.2%
Cc1ccc(CN(c2ccc(C(=O)N3CCCC3)cc2)S(C)(=O)=O)cc1	i	-0.63	0.4%
COc1ccc(NC(=O)CSc2nnc(-c3ccoc3C)n2CCc2ccccc2)cc1	i	1.3	-6.2%
CC(C)(C)NS(=O)(=O)c1ccc(-c2csnn2)s1	i	/	-3.2%
Cc1ccc(NC(=O)CSCC(=O)Nc2ccc(N3CCOCC3)c(Cl)c2)cc1	i	/	3.7%
CC(C)(C)NC(=O)C1CCCN(S(=O)(=O)c2cccc3cccnc23)C1 (stereo unspecified)	i	1.3	5.4%
COC(=O)[C@@H](N)Cc1ccc(O)cc1	i	0.04	-6.7%
O=S(=O)(Nc1ccc(N2CCOCC2)cc1)c1ccc2ccccc2c1	i	/	7.4%
CCN(CC)c1ccc(NC(=O)CN2CCN(CC(=O)Nc3ccccc3F)CC2)cc1	i	0.21	-5.3%

Filtered by structure, the compounds so far containing a Cl atom.
SMILES	MT1-MMP reporter	WNV NS2B-NS3 inh	Hsc70 ATP site
NCCCCCc1nnc(SCC(=O)c2ccc(Cl)cc2)o1	i	-0.78	-2.0%
CCCNC(=O)NS(=O)(=O)c1ccc(Cl)cc1	i	-0.34	4.9%
O=C(NC1CCCCC1)c1cccc(Cn2cc(Cl)cn2)c1	i	/	-1.2%
O=S(=O)(c1cc(Cl)ccc1Cl)N1CCNCC1	i	/	5.5%
CCOc1cc(C)c(Cl)cc1S(=O)(=O)NCc1ccco1	i	0.49	-0.9%
O=C1CC2CS(=O)(=O)CC2N1c1ccc(Cl)cc1Cl (stereo unspecified)	i	-0.49	-1.5%
Cc1ccc(NC(=O)CSCC(=O)Nc2ccc(N3CCOCC3)c(Cl)c2)cc1	i	/	3.7%

(further entries)
SMILES	MT1-MMP reporter	WNV NS2B-NS3 inh	Hsc70 ATP site
c1ccc(C2=NNC(=NC3CC3)SC2)cc1	1.7µM*	/	3.6%
O=C(Nc1ccc2c(c1)OCO2)c1ccncc1	i	0.36	1.6%
CCOc1ccc2nc(NC(=O)CSc3ccc(Cl)cc3)sc2c1	i	/	-3.3%
O=C(NCc1cccnc1)NC1(c2ccccc2)CC1	i	-1.9	-1.8%
CC(C)(C)n1nnnc1C(c1cc2cc3c(cc2[nH]c1=O)OCCO3)N1CCSCC1 (stereo unspecified)	i	-0.16	4.0%
COc1ccc2c(c1)c(=O)oc1c(C)c3occ(C)c3cc12	i	-0.47	-10%
COC(=O)Nc1cc(C)nc2ccccc12	i	-0.57	0.6%
CN(C)S(=O)(=O)N(CC(=O)Nc1cccc(F)c1)c1ccccc1	i	/	5.1%
CCC(OC(=O)c1ccco1)C(=O)NCc1ccco1 (stereo unspecified)	i	0.38	2.1%
Cc1cc2c(c(=O)n1Cc1ccco1)C(c1cccnc1)C(C#N)=C(N)O2 (stereo unspecified)	i	0.67	-2.6%
Cn1c(SCC(=O)c2cccs2)nnc1-c1ccco1	i	-0.58	-4.3%
CSc1ccccc1NC(=O)CN(c1cccc(C)c1)S(C)(=O)=O	i	0.68	2.6%
Cc1nn(-c2cc(C)c3ccccc3n2)c2c1C1C(C2)C1(C)C (stereo unspecified)	i	/	-11%
NC(=O)CSc1ccc(Br)cc1	i	-0.13	6.0%
CC(=O)N1CCN=C1SCc1ccc(Cl)cc1	i	-1.1	-1.0%
CN(C)CCOCCP(=O)(c1ccccc1)c1ccccc1	i	0.06	7.6%
Cn1c(=O)c2c(nc(NCCNC(=O)c3ccco3)n2Cc2ccccc2Cl)n(C)c1=O	i	-0.91	-2.3%
COc1ccc2cc(CCNC(=O)C3CC3)c(=O)[nH]c2c1	i	1.1	7.4%
CCCn1c(SCC(=O)Nc2nc3ccccc3s2)nc2c1c(=O)n(C)c(=O)n2C	i	/	-0.5%
Cn1c(SCc2cccc(C(F)(F)F)c2)nnc1-c1ccco1	i	-0.88	-1.4%
CC1CCCN(CCC(=O)c2ccc(Br)cc2)C1 (stereo unspecified)	i	-1.2	2.6%
CC(C)CN(C(=O)CSc1nnc2ccccn12)c1c(N)n(CC(C)C)c(=O)[nH]c1=O	i	/	5.5%
COc1ccc(NC(=O)C2CCCN(S(=O)(=O)c3cccc4cccnc34)C2)c(OC)c1 (stereo unspecified)	i	-1.2	1.8%
O=C(Nc1ccc(Cl)c(Cl)c1)N(Cc1cccnc1)Cc1ccco1	i	-2.1	2.6%
CN1CCN(C(=O)CN(CCc2ccccc2)S(C)(=O)=O)CC1	i	/	2.8%
SMILES	MT1-MMP reporter	WNV NS2B-NS3 inh	Hsc70 ATP site
CCOc1ccc(N/C=C\C(=O)c2ccc3c(c2)OCO3)cc1	i	/	-32%
O=C(COC(=O)c1ccc(O)cc1)Nc1ccc(N2CCCCC2)cc1	i	/	-3.3%
COc1ccc(C(c2nnnn2Cc2ccc(F)cc2)N2CCN(c3ccc(OC)cc3)CC2)cc1 (stereo unspecified)	i	-0.26	-1.4%
Cc1cc(N(CN2CCCC2=O)C(=O)c2ccccc2)no1	i	-1.6	-5.1%
COc1ccccc1NC(=O)CCNC(=O)Cn1ccc2ccccc2c1=O	i	-0.14	-0.5%
O=c1cc(CSc2ccccn2)c2ccccc2[nH]1	i	-0.62	8.2%
CCOc1ccc(C(C)(C)C)cc1S(=O)(=O)N1CCOCC1	i	-0.99	-26%
COc1cc(C(=O)Nc2cccc3cccnc23)cc(OC)c1OC	i	/	-2.2%
FC(F)(F)c1cc(-c2ccccc2)nc(N2CCCCC2)n1	i	0.1	-2.7%
CCCC(=O)Nc1nn(C)c2nc3c(C)cccc3cc12	i	-0.4	4.3%
O=C(NC1CCCCC1)C1CC=CCC1C(=O)OCC(Cl)=C(Cl)Cl (stereo unspecified)	i	/	5.6%
O=C(NCCSc1ccccc1)c1cncc(Br)c1	i	/	-1.1%
